KCNQ2 inh: KCNQ2 channel blockers in CHO-K1 cells – cell-based, FluxOR thallium flux, B-score, primary screen (AID 2156); O88943; 20 min; hits give low values; only compounds with negative scores are shown here; some inactives read as strong as hits; B-score at 10 µM; 1.1% of 310,000 active;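 active = fluorescence ratio B-score at most minus 3 library SDs, with starting brightness B-score within 2 library SDs, cut at about -5.5 in these data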
Target sequence (O88943 whole entry, looked up): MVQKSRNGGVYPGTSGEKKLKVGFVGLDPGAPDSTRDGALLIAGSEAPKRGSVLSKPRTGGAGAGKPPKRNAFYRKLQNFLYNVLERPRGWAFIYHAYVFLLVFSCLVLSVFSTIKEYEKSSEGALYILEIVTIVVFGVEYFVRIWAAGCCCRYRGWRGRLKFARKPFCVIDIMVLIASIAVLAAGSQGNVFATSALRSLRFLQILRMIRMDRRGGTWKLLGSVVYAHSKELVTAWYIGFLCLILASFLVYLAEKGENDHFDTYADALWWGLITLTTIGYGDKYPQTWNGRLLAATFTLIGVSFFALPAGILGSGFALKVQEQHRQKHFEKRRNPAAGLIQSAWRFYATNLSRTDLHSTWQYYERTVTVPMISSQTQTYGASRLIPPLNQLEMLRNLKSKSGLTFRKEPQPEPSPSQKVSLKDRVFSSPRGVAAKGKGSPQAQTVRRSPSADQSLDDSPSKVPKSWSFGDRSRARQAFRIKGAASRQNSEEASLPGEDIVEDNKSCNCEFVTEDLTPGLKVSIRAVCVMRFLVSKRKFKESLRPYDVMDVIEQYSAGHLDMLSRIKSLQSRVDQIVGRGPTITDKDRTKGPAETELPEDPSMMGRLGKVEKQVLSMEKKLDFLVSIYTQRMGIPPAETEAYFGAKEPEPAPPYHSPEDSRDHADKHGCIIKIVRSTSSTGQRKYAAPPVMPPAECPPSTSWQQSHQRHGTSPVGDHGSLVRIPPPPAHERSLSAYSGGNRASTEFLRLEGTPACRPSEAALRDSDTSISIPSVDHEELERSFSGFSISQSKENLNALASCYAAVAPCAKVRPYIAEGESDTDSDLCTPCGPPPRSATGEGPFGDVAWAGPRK
KCNQ2 inh baseline: recorded beside KCNQ2 inh, whose call it bears; B-score; measured here: initial fluorescence intensity artifact check;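 brightness before thallium and not channel activity; 0 = typical well and far values either way flag optical interference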
Starred values were filed as active, the others as inactive; i = inactive. This is a subset, so the mix of outcomes need not match the whole.

#	canonical_smiles	KCNQ2 inh	KCNQ2 inh baseline
1	Cc1ccc(S(=O)(=O)n2nc(OC(=O)c3cccs3)cc2N)cc1	i	-0.97
2	Cc1ccc(C2(c3noc(CN4CCC(c5ccncc5)CC4)n3)CCCC2)cc1	i	0.46
3	CCCC(=O)Nc1nc2ccc(C(=O)OCC)cc2s1	i	1.37
4	COc1ccccc1CCC(=O)NC1CCCN(c2ccc(C(F)(F)F)cn2)C1 (configuration not stated)	i	0.41
5	COc1ccc(C=O)cc1COc1c(F)c(F)cc(F)c1F	i	-2.08
6	CCCN(C(=O)CSc1n[nH]c(-c2ccc(OC)cc2)n1)c1c(N)n(Cc2ccccc2)c(=O)[nH]c1=O	i	0.09
7	N#Cc1c(-c2ccccc2)cc(-c2ccccc2)nc1SCC(=O)O	i	-0.18
8	N/C(=N\OC(=O)COc1ccc2ccccc2c1Br)c1ccncc1	i	0.01
9	CC1(C)NC(=O)N(CN2C(=O)NC(C)(C)C2=O)C1=O	i	0.34
10	COc1ccc(S(=O)(=O)N(CC(=O)NCc2ccccn2)Cc2ccccc2)cc1	i	-0.51
11	CCOc1ccc(NC(=S)N2CCC(c3ccc(C)cc3)C2)cc1 (configuration not stated)	i	-0.49
12	CCN(CC)C(=O)c1ccc(NS(=O)(=O)c2ccc(/C=C/C(=O)O)cc2)cc1	i	-1.13
13	CC(C)C(=O)Nc1ccc2c(c1)oc1ccccc12	i	2.48
14	COc1ccc(CN(C)CC(=O)Nc2ccc(N3CCOCC3)cc2)cc1OC	i	0.41
15	COc1ccc(S(=O)(=O)N2CCOCC2)cc1NC(=O)c1ccc2c(c1)OCCO2	i	-0.7
16	COc1ccccc1CSc1nc2c(c(=O)n(C)c(=O)n2C)n1C	i	0.52
17	CCc1ccc(NC(=O)N2CCc3ccccc3C2)cc1	i	-0.87
18	O=C(O)Cc1ccc(C(=O)c2ccc(F)cc2)s1	i	1.38
19	O=C(Nc1ccn(Cc2ccccc2)n1)c1ccc2c(c1)OCO2	i	0.57
20	COCC(C)NC(=O)c1ccc(CN2CCc3ccccc3C2)cc1 (configuration not stated)	i	0.17
21	CCCOC(=O)C1=C(C)NC(=O)NC1c1cccc2ccccc12 (configuration not stated)	i	0.21
22	O=C1NCCN(Cc2ccc(Cl)c(F)c2)C1CC(=O)N1CCCO1 (configuration not stated)	i	-0.28
23	C/C(=N\N=C(/N)c1nonc1N)c1ccc2c(c1)OCO2	i	0.25
24	O=C(Nc1ccc2ccccc2c1)c1onc2c1CCCC2	i	-0.33
25	Cc1c(Cl)cccc1NC(=S)NNc1ncc(C(F)(F)F)cc1Cl	i	1.83
26	O=C(CC1Sc2ncnn2C1=O)Nc1ccccc1 (configuration not stated)	i	-0.46
27	CCOC(=O)c1c(O)c2ccccc2n(-c2ccccc2)c1=O	i	0.02
28	CC1=CC2=NC(=O)/C(=C\c3cccn3CCOc3ccccc3)C(=N)N2O1	i	1.64
29	CC(=O)N1CCOc2ccc(S(=O)(=O)N3CCC(C(=O)NCc4ccc(F)cc4)CC3)cc21	i	-1.84
30	COC(=O)c1cc(C(=O)Nc2ccc(S(=O)(=O)NC(C)(C)C)cc2)cc([N+](=O)[O-])c1	i	-0.99
31	Cc1ccc(-c2noc(CCC(=O)NC3CCCC3)n2)cc1	i	-0.01
32	COc1ccc(-c2nnc(SCC(=O)N3CCc4ccccc4C3)o2)cc1	i	-1.01
33	CCCCC(=O)NC(c1ccc(N(C)C)cc1)c1ccc2cccnc2c1O (configuration not stated)	i	1.84
34	COC(=O)CNC(=O)Cn1nc(C)c([N+](=O)[O-])c1C	i	1.13
35	N#Cc1ccccc1Cn1c(=O)n(Cc2ccc(C(=O)NCc3ccco3)cc2)c(=O)c2sccc21	i	1.42
36	Cc1ccnc(NC(=O)C2CCN(S(=O)(=O)c3ccc(Cl)c(C(F)(F)F)c3)CC2)c1	i	1.1
37	COc1cc(NC(=O)CCC(=O)c2cccs2)cc(OC)c1	i	-0.64
38	O=C(c1ccccc1F)N(Cc1ccccc1)Cc1ccccc1	i	0.02
39	CCN(CC)S(=O)(=O)c1ccc(Cl)c(C(=O)OC2CC(C)OC2=O)c1 (configuration not stated)	i	0.19
40	CCOC(=O)N1CCN(C(=O)CCCOc2ccccc2)CC1	i	1.5
41	COc1ccc(C(=O)c2c[nH]c(C(=O)NCCCN3CCOCC3)c2)cc1	i	1.08
42	CCCNS(=O)(=O)c1cc(Cl)ccc1OC	i	-0.02
43	C=CCn1c(SCC(=O)N(CCOC)c2c(N)n(CC(C)C)c(=O)[nH]c2=O)nc2ccccc21	i	1.56
44	CC(C)NC(=O)c1ccccc1NC(=O)/C=C/c1ccc([N+](=O)[O-])cc1	i	-1.06
45	C/C=N\NC(=O)COc1cc(C)ccc1C	i	-3.3
46	CCOc1nc(SCCOc2ccccc2)nc(N(C)C)n1	i	-1.47
47	CCc1cc2c(SCC(=O)NC3CCS(=O)(=O)C3)ncnc2s1 (configuration not stated)	i	0.57
48	CCCOc1ccc(C(=O)OCC(=O)NCCc2ccc(OCC)c(OCC)c2)cc1OC	i	-0.1
49	COc1cccc(C(=O)/C=C/Nc2ccc(S(=O)(=O)Nc3ccc(C(C)=O)cc3)cc2)c1	i	-2.76
50	CC(=O)c1c(C)[nH]c(C(=O)OCC(=O)Nc2ccc(Cl)cc2[N+](=O)[O-])c1C	i	0.05

More entries follow.
#	canonical_smiles	KCNQ2 inh	KCNQ2 inh baseline
51	COc1ccc2[nH]c(=O)c(CNc3ccccc3C)cc2c1	i	1.33
52	CN(C)c1ncnc2c1ncn2C1OC(CO)C(O)C1O (configuration not stated)	i	1.46
53	Cc1ccc(CCNC(=O)C2CCN(C(=O)c3sccc3-n3cccc3)CC2)cc1	i	-0.92
54	CC1CC(=O)c2cnc(NCC3CCCO3)nc2C1 (configuration not stated)	i	-0.33
55	O=C(NCC(c1cccs1)N1CCOCC1)c1cn(-c2ccccc2)nc1-c1ccc(F)cc1 (configuration not stated)	i	-0.91
56	Cc1ccc(S(=O)(=O)N2CCN(C(=O)N3CCOCC3)CC2)cc1C	i	-0.87
57	CCN(CC(=O)NCc1ccc(F)cc1)C(=O)/C=C/c1ccc(OC)cc1	i	-0.11
58	NC(=O)Cn1cc(C(=O)C(=O)N2CCOCC2)c2ccccc21	i	0.14
59	CC(C)CC(=O)Nc1ccc2c(c1)oc1ccccc12	i	-0.53
60	CCOc1ccc(N2CC(C(=O)Nc3cccc(S(=O)(=O)NC4=NCCC4)c3)CC2=O)cc1 (configuration not stated)	i	2.49
61	COc1ccc(-c2nc3cnccn3c2Nc2ccc3c(c2)OCO3)cc1	i	-0.02
62	COc1cc(C(=O)NCc2ccc(F)cc2)cc(Cl)c1OC	i	0.01
63	Cc1ccc(Cl)cc1NC(=O)Cn1nc(-c2cccs2)ccc1=O	i	-0.98
64	CCOc1cc(C(F)(F)F)cnc1/C(N)=N/O	i	0.08
65	COc1ccccc1C(c1nnnn1C(C)(C)C)N1CCCc2ccccc21 (configuration not stated)	i	-0.2
66	CCCCC(NC(=O)c1ccccc1)C(=O)OCC(=O)N1c2ccccc2Sc2ccccc21 (configuration not stated)	i	1.05
67	S=c1[nH]nc([C@@H]2C[C@H]2c2ccccc2)n1-c1ccccc1Cl	i	2.1
68	O=C(c1cccc(S(=O)(=O)N2CCOCC2)c1)N1CCCc2ccccc21	i	0.85
69	CC(C)C1N(S(=O)(=O)c2ccccc2)CCN1S(=O)(=O)c1ccccc1	i	0.67
70	COc1ccc(-n2cc(C(=O)Nc3cc([N+](=O)[O-])ccc3OC)c3ccccc3c2=O)cc1	i	-1.17
71	NC1=NC(c2ccc(Cl)cc2)C(C(=O)c2ccccc2)N1 (configuration not stated)	i	-0.39
72	COc1ccc2nc(SCC(=O)Nc3ccc(S(=O)(=O)Nc4onc(C)c4C)cc3)[nH]c2c1	i	-1.82
73	O=S(=O)(NCc1ccccn1)c1ccccn1	i	1.43
74	O=C(NCc1cccc(Br)c1)C1CC(c2ccccc2C(F)(F)F)=NO1 (configuration not stated)	i	-0.48
75	O=C(Cc1ccc(Cl)cc1)NC1CC1	i	-0.06

Two compounds drawn at random from those above, as already listed:
#	canonical_smiles	KCNQ2 inh	KCNQ2 inh baseline
75	O=C(Cc1ccc(Cl)cc1)NC1CC1	i	-0.06
65	COc1ccccc1C(c1nnnn1C(C)(C)C)N1CCCc2ccccc21 (configuration not stated)	i	-0.2

Later entries.
#	canonical_smiles	KCNQ2 inh	KCNQ2 inh baseline
76	O=C(N/N=C/c1c(Cl)nc2ccccn2c1=O)c1cccnc1	i	-2.5
77	Cc1n[nH]c(C)c1S(=O)(=O)N1CCOCC1	i	0.89
78	Cc1ccc(NC(=S)NC2CC3CCC(C2)N3Cc2ccco2)c(C)c1 (configuration not stated)	i	0.72
79	COc1ccccc1N/N=C1\COC(C)(C)CC1=O	i	1.34
80	N#Cc1c(SCC(=O)O)nc(N2CCOCC2)c2c1CCCC2	i	0.77
81	CC1=NN(c2ccccc2)C(=O)/C1=C\c1cn(C)c2ccccc12	i	-1.32
82	COc1ccc(/C=C/C(=O)N(C)C2CCS(=O)(=O)C2)cc1 (configuration not stated)	i	-0.56
83	COCCNC(=O)c1ccc(S(=O)(=O)N2CCCc3ccccc32)cc1	i	1.04
84	COc1ccc(NC(=O)C2CCN(C(=O)c3cccs3)CC2)cc1OC	i	-1.68
85	CC(=O)c1c(C)[nH]c(C(=O)Nc2ccc(C)c(S(=O)(=O)Nc3ccc(C)cc3C)c2)c1C	i	-2.19
86	Cc1nc(NS(=O)(=O)c2cccc([N+](=O)[O-])c2)sc1C(C)(C)C	i	-0.02
87	FC(F)Oc1ccc(-c2csc(Cc3nnc4n3CCCCC4)n2)cc1	i	-0.06
88	Cc1cc(=O)[nH]c(N/N=C/c2ccc(Cl)c([N+](=O)[O-])c2)n1	i	0.02
89	Cc1ccc(C(C)(C)NC(=O)C2CCC(=O)N(CC3CCCCC3)C2)cc1 (configuration not stated)	i	-1.64
90	COc1ccccc1C(=O)N1CCN(c2cccc(Cl)c2)CC1	i	-0.9
91	O=C(O)CNC(=O)/C(=C/c1ccco1)NC(=O)/C=C/c1ccccc1	i	1.13
92	O=C(O)c1c(NC(=O)N2CCOCC2)sc2c1CCCC2	i	-1.03
93	Cc1cc(C)c(S(=O)(=O)Nc2ncccc2C)c(C)c1	i	0.01
94	Cc1ccc(O)c(C(=O)c2cc(C#N)c3nc4ccccc4n3c2)c1	i	0.01
95	COc1ccc(/C=N/OCC(=O)NCc2cccs2)c(OC)c1	i	-0.18
96	CC(=O)c1cccc(NC(=O)c2cc(S(=O)(=O)N3CCOCC3)cs2)c1	i	0.49
97	CC(=O)c1cccc(NC(=O)Cn2cnc(S(=O)(=O)N3CCC(C)CC3)c2)c1	i	0.64
98	CCN(CC)S(=O)(=O)c1cc(C(=O)Oc2cccc(-c3cnc4ccccc4n3)c2)ccc1Br	i	-0.64
99	Cc1ccc(NC(=O)CSc2ncnc3ccccc23)cc1S(=O)(=O)N1CCCCCC1	i	-0.37
100	CC1(C)c2[nH]c3ccccc3c2C[C@@H]2C(=O)N(Cc3ccccc3F)C(=O)N21	i	0.06

Among those listed so far, three contain bromine:
#	canonical_smiles	KCNQ2 inh	KCNQ2 inh baseline
8	N/C(=N\OC(=O)COc1ccc2ccccc2c1Br)c1ccncc1	i	0.01
74	O=C(NCc1cccc(Br)c1)C1CC(c2ccccc2C(F)(F)F)=NO1 (configuration not stated)	i	-0.48
98	CCN(CC)S(=O)(=O)c1cc(C(=O)Oc2cccc(-c3cnc4ccccc4n3)c2)ccc1Br	i	-0.64

(more compounds)
#	canonical_smiles	KCNQ2 inh	KCNQ2 inh baseline
101	Cc1ccc(OCCN2C(=O)c3ccccc3C2=O)c(C)c1	i	1.51
102	Cc1cc(C)c(S(=O)(=O)c2c(C)cccc2C)c(OCC(C)C)n1	i	-1.07
103	CCCC1(C(=O)OCC)NC(c2ccc(O)cc2)C2C(=O)N(c3ccc4c(c3)OCCO4)C(=O)C21 (configuration not stated)	i	0.11
104	COC(=O)c1ccc(Cn2nc(-c3ccc(C)c(C)c3)ccc2=O)cc1	i	0.41
105	CCOC(=O)c1cnc2c(c(C)nn2C)c1Oc1ccc(Cl)cc1	i	0.21
106	Cc1ccc(Nc2nnc(SCC(=O)Nc3ncc(S(=O)(=O)c4ccc([N+](=O)[O-])cc4)s3)s2)cc1	i	-0.47
107	Cc1cc(OCC(=O)N2CCC(O)CC2)c2c(C)cc(=O)oc2c1	i	4.03
108	O=S(=O)(c1cc(F)ccc1F)N1CCN(C2CCCCC2)CC1	i	0.1
109	O=C(COc1ncnc2ccccc12)Nc1cc([N+](=O)[O-])ccc1F	i	3.19
110	COc1ccc(-c2ncccc2OC(=O)C23CC4CC(CC(C4)C2)C3)cc1OC	i	0.09
111	CC(C)(C)c1ccc(CN2N=C(/C=C/c3ccccc3)CCC2=O)cc1	i	-0.52
112	C=C(C)Cn1c(-c2ccc(OC)cc2)nc2ccccc21	i	0.2
113	CC(NC(=O)c1cccs1)C(c1cccs1)N1CCN(c2ccccc2)CC1 (configuration not stated)	i	-0.04
114	Cc1cc(C)c2c(c1)cc(C)c1nnc(SCC(=O)Nc3ccccc3N3CCOCC3)n12	i	-0.72
115	O=C(O)CC(Cn1[nH]nnc1=S)c1ccccc1 (configuration not stated)	i	0.69
116	CC(C)(O)C#Cc1ccc(C(=O)NC(CCCNC(N)=O)C(=O)O)s1 (configuration not stated)	i	0.45
117	Cn1cc(SCC(=O)O)c2ccccc21	i	-0.5
118	CC1(C)COCN1C(=O)c1ccc(Cl)c(Cl)c1	i	1.67
119	CCC(=O)n1nc(-c2cccnc2)nc1NCc1ccc(F)cc1	i	-2.11
120	N#Cc1c(NC(=O)CSc2ncccn2)oc(-c2ccccc2)c1-c1ccccc1	i	-1.85
121	Cn1c(NC(=O)C2CCCC2)cc(=O)n(C)c1=O	i	-0.35

Record cards, as listed above:
CCCC1(C(=O)OCC)NC(c2ccc(O)cc2)C2C(=O)N(c3ccc4c(c3)OCCO4)C(=O)C21 (configuration not stated) as listed: KCNQ2 inh: i; KCNQ2 inh baseline: 0.11
O=C(O)CC(Cn1[nH]nnc1=S)c1ccccc1 (configuration not stated) as listed: KCNQ2 inh: i; KCNQ2 inh baseline: 0.69
